VACV Venus inh – vaccinia inhibition (Venus reporter); Vaccinia virus Venus reporter expression, fluorescence; Potency, µM (doses to about 36.5 µM), without a hit: top-dose activity change, negative = inhibition, most hits filed as inhibitors; 330,000 tested, 0.46% active; AID 720580; active means well fitted inhibition curve with a large enough effect; inconclusive means small, poorly fitted or top-dose-only effect; inactive means no such curve, though single readings can be large or run the other way; tested in A549 cells; further: nearly all actives have a fitted effect of over 30% in size; inactives centre near -10
VACV mCherry inh – inhibitors of vaccinia virus infection (mCherry reporter signal); Vaccinia virus mCherry reporter infection, fluorescence; about a quarter of the inactives have no number; Potency, µM (highest dose often 36.5 µM), inactives show top-dose activity change, negative = inhibition, usual class: inhibitors; 310,000 tested, 0.63% active; AID 720579; active = well fitted inhibition curve with a large enough effect; inconclusive = small, poorly fitted or top-dose-only effect; inactive = no such curve, though single readings can be large or run the other way; tested in A549 cells; further: nearly all actives have a fitted effect of over 35% in size; inactives centre near -10
Starred values were filed as active, the others as inactive; [ ] = dose if it differs, or a comment. On the % scale 0 is the no-effect control and ±100 the full control effect; potency means the concentration at half of the fitted maximal effect.

Screening COCCN(C(=O)C1CCC1)c1nnc(-c2cccnc2)s1 returned VACV Venus inh 0% and VACV mCherry inh -10%.
`COc1cc(OC)c(C(=O)OCC(=O)Nc2ccc(N3CCOCC3)cc2)cc1OC` gave VACV Venus inh 1% and VACV mCherry inh -20%.
`N#C/C(=C\c1ccc([N+](=O)[O-])cc1)C(=O)NCCCn1ccnc1` gave VACV Venus inh -16% and VACV mCherry inh -1%.
Screening Cc1cc(C)n(C(=O)/C(C#N)=C/N(C)C)n1 returned VACV Venus inh -16% and VACV mCherry inh inactive.
Cc1ccc(-n2ncc3c2ncn2nc(-c4ccco4)nc32)c(C)c1 was read as VACV Venus inh -19%.
`COC(=O)Cc1nc(Nc2ccccc2)sc1C` gave VACV Venus inh -9% and VACV mCherry inh -5%.
CCOC(=O)c1cnc(-c2ccccc2)nc1C(F)(F)F was read as VACV Venus inh 1% and VACV mCherry inh 5%.
For CCOc1ccc(OCCCC(=O)N2CCN(S(=O)(=O)c3ccc(Cl)cc3)CC2)cc1 the results were VACV Venus inh -19% and VACV mCherry inh -5%.
Screening CCN(C(=O)Cn1nc(C(=O)O)c2ccccc2c1=O)C1CCCCC1 returned VACV Venus inh -13% and VACV mCherry inh inactive.
For O=C(Nc1cccc(Br)c1)Oc1cccc2cccnc12 the results were VACV Venus inh -8% and VACV mCherry inh inactive.
For CCn1c(C)c(C)c2cc(C(=O)NCC(C)c3ccccc3)ccc21 (configuration not stated) the results were VACV Venus inh -2% and VACV mCherry inh -12%.
Screening CCN(C(=O)CSc1nc2ccccc2n1CC(=O)Nc1ccccc1C)c1ccccc1 returned VACV Venus inh 4% and VACV mCherry inh -21%.
Screening O=c1oc(-c2ccccc2[N+](=O)[O-])nc2ccccc12 returned VACV Venus inh -5%.
O=C(NCc1cccs1)c1ccc(CS(=O)Cc2cccc(Cl)c2)o1 (configuration not stated) was read as VACV Venus inh -6% and VACV mCherry inh -14%.
Cc1nonc1C(=O)N/N=C/c1ccncc1 was read as VACV Venus inh -7% and VACV mCherry inh inactive.
`CCN(CC)C(=O)CN(c1cccc([N+](=O)[O-])c1)S(=O)(=O)c1ccccc1` gave VACV Venus inh -8% and VACV mCherry inh -17%.
For Cc1ccc2c(c1C)OC(=O)CC2(C)C the results were VACV Venus inh 2% and VACV mCherry inh -13%.
`Cc1ccc(C(=O)N2CCN(S(=O)(=O)N3CCOCC3)CC2)cc1` gave VACV Venus inh -20% and VACV mCherry inh inactive.
CCCn1c2ccccc2c2cnn(CC(=O)NCCc3ccc(OC)cc3OC)c(=O)c21 was read as VACV Venus inh -9%[7.34 µM] and VACV mCherry inh -8%[7.34 µM].
Screening O=C(Oc1ccccc1)c1ccc(-n2cnnn2)cc1 returned VACV Venus inh -11% and VACV mCherry inh -9%.
CCn1c(C)nnc1SCC(=O)NC1CCCC1 was read as VACV Venus inh -14% and VACV mCherry inh inactive.
`CCc1nc(SCC(=O)N2CCc3cc(OC)c(OC)cc3C2)c(C#N)cc1C` gave VACV Venus inh -3%.
`CC1C(c2cccs2)=[N+]([O-])C(C)(C(=O)c2ccc(Cl)cc2)N1O` (configuration not stated) gave VACV Venus inh -3% and VACV mCherry inh -11%.
CC(=O)NCCNc1nc(NC(C)C)nc2ccsc12 was read as VACV Venus inh 4% and VACV mCherry inh -8%.
Cc1cc(NC(=O)CCC(=O)N(CCC(C)C)CC(=O)NCC2CCCO2)no1 (configuration not stated) was read as VACV Venus inh 2% and VACV mCherry inh 7%.
`N#Cc1c(Cn2cncn2)nc(=O)n(-c2ccccc2)c1N` gave VACV Venus inh -10% and VACV mCherry inh -1%.
`CCOC(=O)c1nc(N2CCN(c3ccc(F)cc3)CC2)c2c(C)noc2n1` gave VACV Venus inh 0% and VACV mCherry inh 0%.
`CC(=O)Nc1ccc(NC(=O)C(C)OC(=O)C(C)SCC(=O)Nc2ccc(C)cc2)cc1` (configuration not stated) gave VACV Venus inh -17% and VACV mCherry inh -3%.
CC(/C=N/NC(=O)c1ccc(CN2c3cccc4cccc(c34)S2(=O)=O)cc1)c1ccccc1 (configuration not stated) was read as VACV Venus inh -10% and VACV mCherry inh -9%.
Screening CCCCSc1nnc2c(n1)OC(c1ccc(C)s1)Nc1ccccc1-2 (configuration not stated) returned VACV Venus inh -16% and VACV mCherry inh -12%.
`COc1ccc2nc(N3CCCC(C(=O)NCCCN4CCN(C)CC4)C3)sc2c1` (configuration not stated) gave VACV Venus inh -16% and VACV mCherry inh -14%.
Screening CCc1ccc(NC(=O)c2oc3c(c2C)-c2[nH]ncc2CC3)cc1 returned VACV Venus inh -6% and VACV mCherry inh -2%.
Screening Cc1cccc(Oc2ncccc2[N+](=O)[O-])c1C returned VACV Venus inh -1% and VACV mCherry inh inactive.
Screening CCCCCNC(=O)C(C#N)c1nc2ccccc2nc1N1CCCC1 (configuration not stated) returned VACV Venus inh -2%.
Screening CCCc1cc(=O)[nH]c(SCC(=O)Nc2cc3c(cc2C(C)=O)OCO3)n1 returned VACV Venus inh -1% and VACV mCherry inh -5%[1.46 µM].
O=C(CSc1nnc(SCc2ccccc2)s1)NNC(=S)Nc1ccccc1 was read as VACV Venus inh -4% and VACV mCherry inh inactive.
Screening NC1=NC[C@H](c2ccccc2)N1CCc1cccc(F)c1 returned VACV Venus inh -14% and VACV mCherry inh -9%.
Screening Cc1nn(CC(=O)NCCc2ccc(Cl)cc2)c(C)c1[N+](=O)[O-] returned VACV Venus inh -8% and VACV mCherry inh inactive.
For COc1ccc(C(=O)N2CCN(CCc3ccccc3)CC2)cc1[N+](=O)[O-] the results were VACV Venus inh -17% and VACV mCherry inh -25%.
Screening CCOc1ccc(-n2c(O)c(C=Nc3ccc(N4CCOCC4)cc3)c(=O)[nH]c2=O)cc1 returned VACV Venus inh -4% and VACV mCherry inh -14%.
Screening C=CCN1C(c2cccc(C(F)(F)F)c2)=CS/C1=C(/C#N)c1nnc(N2CCOCC2)n1-c1ccccc1 returned VACV Venus inh -21% and VACV mCherry inh -2%.
`CC1(C)C(c2ccccn2)=[N+]([O-])C(C)(C)N1O` gave VACV Venus inh -2% and VACV mCherry inh inconclusive.
Screening Cc1ccc(N(CC(=O)NCCSc2ccccc2)S(=O)(=O)c2ccc(F)cc2)cc1 returned VACV Venus inh -9% and VACV mCherry inh inactive.
CN(C)C(=O)c1cnc(-c2ccccc2)nc1-c1ccccc1 was read as VACV Venus inh -11% and VACV mCherry inh -6%.
COc1ccc(-n2c(C)nc3cc(C(=O)O)ccc32)cc1 was read as VACV Venus inh -3% and VACV mCherry inh -12%.
CC(=O)c1ccc(NC(=O)Cn2c3ccccc3c3nc(=O)cc(C)n32)cc1 was read as VACV Venus inh -12% and VACV mCherry inh 1%.
CCCCn1c(N)c(N(CCOC)C(=O)CSc2nnc(C)n2-c2ccc(OC)cc2)c(=O)[nH]c1=O was read as VACV Venus inh 1% and VACV mCherry inh -11%.
For COc1cc(/C=C2/SC(=O)N(Cc3ccccc3Cl)C2=O)ccc1OCc1ccncc1 the results were VACV Venus inh -11%.
`C(=N\N=C\c1ccncc1)/c1ccncc1` gave VACV Venus inh -2% and VACV mCherry inh -14%.
`NC(CO)c1cn([C@@H](CCC(=O)O)C(=O)N2CCNCC2)nn1` (some centres not stated) gave VACV Venus inh -6% and VACV mCherry inh -9%.
Screening CCCNC(=O)c1cc(S(=O)(=O)N2CCCCC2)c[nH]1 returned VACV Venus inh -9% and VACV mCherry inh -13%.
CCOc1ccc(NC(=O)CN(C)C(=O)C2CCCO2)cc1OCC (configuration not stated) was read as VACV Venus inh -3% and VACV mCherry inh inactive.
`O=C(CCSc1ccc(Cl)cc1)NN=C1CCCCCC1` gave VACV Venus inh -11% and VACV mCherry inh -13%.
For COc1ccc(-c2n[nH]c(=S)n2/N=C/C=C\c2ccccc2OC)cc1 the results were VACV Venus inh -16% and VACV mCherry inh -5%.
For Cc1nnc(NC(=O)CSc2nnc3c(n2)[nH]c2ccc(Br)cc23)s1 the results were VACV Venus inh 0% and VACV mCherry inh 17%.
`Cc1ccc(-n2ncc3c(NCCCOC(C)C)ncnc32)c(C)c1` gave VACV Venus inh -17%.
Screening O=S(=O)(NCc1ccco1)c1ccccc1Br returned VACV Venus inh -8% and VACV mCherry inh inactive.
Screening C#CCNC(=O)C1=C[C@H](c2csc3ccccc23)[C@@H](CCCO)[C@H](OCC)O1 returned VACV Venus inh -19% and VACV mCherry inh inactive.
Screening COc1ccc(C(=O)N2CCC(C(=O)Nc3ccc(OC)cc3OC)CC2)cc1 returned VACV Venus inh 0% and VACV mCherry inh -11%.
CCN(CC)C(=O)COc1ccc(/C(C)=N/NC(=O)c2ccccc2Br)cc1 was read as VACV Venus inh 0% and VACV mCherry inh -4%.
`Cc1cccc2sc(NNC(=O)c3ccc(S(=O)(=O)N4CCCC(C)C4)cc3)nc12` (configuration not stated) gave VACV Venus inh inconclusive and VACV mCherry inh inconclusive.
O=C(CCN1CCCCC1c1cccnc1)NCc1ccccc1 (configuration not stated) was read as VACV Venus inh -11%.
COc1ccc(CCNC(=O)c2c(O)c3ccccc3n(C)c2=O)cc1 was read as VACV Venus inh -7% and VACV mCherry inh -29%.
COc1ccc(C2N=C(c3ccccc3)NO2)cc1OC (configuration not stated) was read as VACV Venus inh -10% and VACV mCherry inh inconclusive.
Screening Cc1ccccc1NC(=O)Cc1nnc(SCC(=O)NC2=NCCS2)n1C returned VACV Venus inh -2% and VACV mCherry inh inactive.
For COc1cccc(NC(=O)COC(=O)CCSc2ccccc2)c1 the results were VACV Venus inh -9% and VACV mCherry inh inactive.
For Cn1cc(-c2ccccc2C(=O)O)c(=O)c2cc(Cl)ccc21 the results were VACV Venus inh -10% and VACV mCherry inh -6%.
Cc1c(C(=O)O)oc2c1/C(=N\O)CCC2 was read as VACV Venus inh -2% and VACV mCherry inh inactive.
For CC(=O)C[C@@H](O)CC(=O)[C@H]1OC(=O)CCCCCCCCc2ccccc21 the results were VACV Venus inh -12% and VACV mCherry inh -14%.
For COc1ccc(CNC(=O)Cn2ncc3c(=O)oc4ccccc4c32)c(OC)c1 the results were VACV Venus inh -3% and VACV mCherry inh inactive.
Cc1cccc(NC(NC(=O)c2ccccc2[N+](=O)[O-])C(Cl)(Cl)Cl)c1 (configuration not stated) was read as VACV Venus inh -6% and VACV mCherry inh inactive.
`O=C(Nc1ccccc1O)c1cc2cc(Br)ccc2oc1=O` gave VACV Venus inh 0% and VACV mCherry inh inactive.
CC(=O)Nc1cccc(/C(C)=N/NC(=O)c2c(-c3ccccc3Cl)noc2C)c1 was read as VACV Venus inh -15% and VACV mCherry inh -27%.
`CC1CC[C@]2(CO)CC[C@]3(C)C(=CCC4[C@@]5(C)CCC(O)C(C)(C)C5CC[C@@]43C)C2C1C` (some centres not stated) gave VACV Venus inh -12% and VACV mCherry inh -12%.
Screening O=C(CCCn1c(=S)[nH]c2ccsc2c1=O)Nc1ccc2c(c1)OCO2 returned VACV Venus inh -13% and VACV mCherry inh -19%.
`Cc1sc(Nc2ccc([N+](=O)[O-])cc2)nc1-c1c(C)n(C)n(-c2ccccc2)c1=O` gave VACV Venus inh -6% and VACV mCherry inh -13%.
`COc1ccc(S(=O)(=O)N2CCCC(C(=O)N3CCN(C)CC3)C2)cc1C` (configuration not stated) gave VACV Venus inh 0% and VACV mCherry inh inactive.
O=C(Cc1ccc(Cl)cc1Cl)Nc1cccc(S(=O)(=O)Nc2ccccc2F)c1 was read as VACV Venus inh -15% and VACV mCherry inh -20%.
`COc1ccc(OC)c(C(C)NC=O)c1` (configuration not stated) gave VACV Venus inh -2% and VACV mCherry inh -2%.
Screening Cc1ccc2nc(CO)[nH]c2c1 returned VACV Venus inh -1% and VACV mCherry inh 12%.
O=C(Nc1ccc(N2CCN(C(=O)c3ccccc3F)CC2)cc1)c1ncn[nH]1 was read as VACV Venus inh 1% and VACV mCherry inh -5%.
`Cc1ccccc1C(=O)OCCCN=C1NS(=O)(=O)c2ccccc21` gave VACV Venus inh -4% and VACV mCherry inh -13%.
N#Cc1c(NC(=S)NC(=O)c2ccccc2)sc2c1CCCCC2 was read as VACV Venus inh -8% and VACV mCherry inh inactive.

Filtered by structure: those above with two or more sulfur atoms
O=C(NCc1cccs1)c1ccc(CS(=O)Cc2cccc(Cl)c2)o1 (configuration not stated) was read as VACV Venus inh -6% and VACV mCherry inh -14%.
Screening CCCCSc1nnc2c(n1)OC(c1ccc(C)s1)Nc1ccccc1-2 (configuration not stated) returned VACV Venus inh -16% and VACV mCherry inh -12%.
O=C(CSc1nnc(SCc2ccccc2)s1)NNC(=S)Nc1ccccc1 was read as VACV Venus inh -4% and VACV mCherry inh inactive.
Screening Cc1ccc(N(CC(=O)NCCSc2ccccc2)S(=O)(=O)c2ccc(F)cc2)cc1 returned VACV Venus inh -9% and VACV mCherry inh inactive.
For Cc1nnc(NC(=O)CSc2nnc3c(n2)[nH]c2ccc(Br)cc23)s1 the results were VACV Venus inh 0% and VACV mCherry inh 17%.
`Cc1cccc2sc(NNC(=O)c3ccc(S(=O)(=O)N4CCCC(C)C4)cc3)nc12` (configuration not stated) gave VACV Venus inh inconclusive and VACV mCherry inh inconclusive.
Screening Cc1ccccc1NC(=O)Cc1nnc(SCC(=O)NC2=NCCS2)n1C returned VACV Venus inh -2% and VACV mCherry inh inactive.
Screening O=C(CCCn1c(=S)[nH]c2ccsc2c1=O)Nc1ccc2c(c1)OCO2 returned VACV Venus inh -13% and VACV mCherry inh -19%.
N#Cc1c(NC(=S)NC(=O)c2ccccc2)sc2c1CCCCC2 was read as VACV Venus inh -8% and VACV mCherry inh inactive.

Screening results deposited in PubChem by National Center for Advancing Translational Sciences (NCATS).

Rows were taken by chance. About 0.87% of those tested had a hit in this group.
